Cruzain noTriton: cruzain (T. cruzi) inhibition without detergent; P25779; purified cruzain, Z-FR-AMC fluorescence, no detergent; Potency, µM, for inactives: max response, negative = inhibition, actives largely listed as inhibitors; 200,000 compounds, 2.3% hits; AID 1476;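 note: plate controls were enzyme without inhibitor for no effect and buffer without enzyme for full effect; nearly all actives have a fitted effect of over 40% in size; top concentration of the series not given in the record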
Target sequence (P25779 123-467 limits assumed): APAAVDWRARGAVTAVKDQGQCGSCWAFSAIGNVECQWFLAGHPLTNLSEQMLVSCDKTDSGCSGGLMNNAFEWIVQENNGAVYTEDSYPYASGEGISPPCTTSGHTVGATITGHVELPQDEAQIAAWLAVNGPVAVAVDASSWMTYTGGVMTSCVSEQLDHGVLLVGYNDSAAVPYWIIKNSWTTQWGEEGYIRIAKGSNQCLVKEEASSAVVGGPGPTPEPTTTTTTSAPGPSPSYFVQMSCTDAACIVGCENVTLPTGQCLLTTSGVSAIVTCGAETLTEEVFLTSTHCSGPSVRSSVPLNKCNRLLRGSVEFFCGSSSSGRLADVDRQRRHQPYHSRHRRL
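Detergent-free condition (0.00005% Triton X-100) in acetate buffer pH 5.5 with DTT. 1.5 nM enzyme and compound were pre-mixed 15 min, then 2 uM Z-FR-AMC substrate added; reaction progress from fluorescence change between first and third reads (60 s).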
SARS PLP yeast: inhibitors of SARS-CoV papain-like protease in yeast; AID 485353; 330,000 compounds, 0.19% hits; Potency, µM (doses to about 32.9 µM), for inactives: at the top dose activity, positive = growth rescue; S. cerevisiae expressing SARS-CoV PLpro, growth rescue; control for the full effect not named in the record; active means well fitted rising curve with a large enough effect; inconclusive means small, poorly fitted or top-dose-only effect; inactive means no such curve, though single readings can be large or run the other way; note: 0% is about no effect; nearly all actives have a fitted effect of over 55% in size; growth read by luminescence after 48 h
2A StopGo: FMDV 2A StopGo reporter, luciferase signal; Potency, µM (top dose mostly 57.9 µM), for inactives: top-dose signal change, negative = less light; 410,000 compounds, 1.2% hits; human cells with a luciferase reporter of 2A StopGo recoding; control for the full effect not named in the record; active = well fitted falling curve with a large enough effect; inconclusive = small, poorly fitted or top-dose-only effect; inactive = no such curve, though single readings can be large or run the other way; tested in HEK293T cells; note: % is set by controls: 0 for no effect and ±100 for the full control effect; nearly all actives have a fitted effect of over 45% in size; luciferase light after 4 h
RE007 growth inh: less growth of the S. pombe RE007 Vpr strain. S. pombe RE007 Vpr strain, BacTiter-Glo ATP luminescence, 24 h; control for the full effect not named in the record. 360,000 compounds, 0.21% hits. Potency, µM (top dose mostly 92.2 µM), for inactives: top-dose activity change, negative = less growth. AID 651644; active = well fitted falling curve with a large enough effect; inconclusive = small, poorly fitted or top-dose-only effect; inactive = no such curve, though single readings can be large or run the other way;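 note: % is set by controls: 0 for no effect and ±100 for the full control effect; nearly all actives have a fitted effect of over 50% in size; the assay follows cell death caused by Vpr and the record does not say whether a fall means rescue or toxicity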
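Fission yeast RE007 carrying one integrated HIV-1 vpr copy, seeded at OD 0.01 in PMG+AL medium with 23 nL pinned compound. Grown 24 h at 30 degrees; viability read by BacTiter-Glo luminescence after 5 min.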
Lassa entry inh: inhibitors of Lassa virus binding or cell entry | Lassa virus pseudotype entry inhibition, cell reporter; control for the full effect not named in the record | Potency, µM (series often up to 37.9 µM), without a hit: at the highest dose activity change, negative = inhibition, usual class: inhibitors | 300,000 compounds, 1.2% hits; active means well fitted inhibition curve with a large enough effect; inconclusive means small, poorly fitted or top-dose-only effect, or effect the other way; inactive means flat fitted curve, though single readings scatter; tested in HEK293 cells; note: % is set by controls: 0 for no effect and ±100 for the full control effect; nearly all actives have a fitted effect of over 50% in size; luciferase read-out
Cruzain inh Det: inhibitors of Trypanosoma cruzi cruzain with detergent; purified cruzain, Z-FR-AMC fluorescence, 0.01% Triton; Potency, µM, inactives show max response, negative = inhibition, actives largely listed as inhibitors; 200,000 compounds, 0.43% hits; AID 1478;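 note: plate controls were neutral wells for no effect and buffer without enzyme for full effect; nearly all actives have a fitted effect of over 40% in size; top concentration of the series not given in the record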
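In this qHTS format, compounds are incubated with 1.5 nM cruzain for 15 min at room temperature before 2 uM Z-FR-AMC is added. Release of AMC is followed at 360/450 nm, and progress is taken as the 60 s fluorescence difference.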
NS1 inh: inhibitors of influenza NS1 protein function; Potency, µM (series often up to 46.1 µM), without a hit: top-dose activity, positive = more growth; S. cerevisiae slowed by influenza A NS1, growth recovery by OD600; 270,000 compounds, 0.4% hits; active means well fitted rising curve with a large enough effect; inconclusive means small, poorly fitted or top-dose-only effect; inactive means no such curve, though single readings can be large or run the other way; note: nearly all actives have a fitted effect of over 50% in size
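A cell-based growth assay was used: compounds that relieve NS1-induced slow growth of budding yeast raise OD600. Assay medium was yeast nitrogen base with ammonium sulphate and -URA supplement, pH 6.0, with 2% galactose.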
MARV entry inh: blocks Marburg virus binding to or entry into cells | Marburg virus pseudotyped entry inhibition, cell reporter; control for the full effect not named in the record; about a third of the inactives were read at about 46 µM | Potency, µM (titrated, usually from 37.8 µM), for the others: at the top dose activity change, negative = inhibition, usual class: inhibitors | 300,000 compounds, 1.8% hits | AID 540276; active = well fitted inhibition curve with a large enough effect; inconclusive = small, poorly fitted or top-dose-only effect, or effect the other way; inactive = flat fitted curve, though single readings scatter; tested in HEK293 cells; about a fifth of its hits are not listed in these tables; note: % is set by controls: 0 for no effect and ±100 for the full control effect; luciferase read-out
* hit, by the source's call; ? = inconclusive; nt = no result given; & = joins results of further samples; [ ] = another dose, or the depositor's remark. Unless noted, calls come from the whole dose curve; as a rule, active = well fitted curve in the direction sought with a large enough effect; inconclusive = small, poorly fitted or top-dose-only effect, or another doubt; inactive = no such curve, though single readings can be large; an effect the other way counts as inactive or inconclusive. Potency is the fitted concentration of half-maximal effect.

SMILES	Cruzain noTriton	SARS PLP yeast	2A StopGo	RE007 growth inh	Lassa entry inh	Cruzain inh Det	NS1 inh	MARV entry inh
Cc1ccc(S(=O)(=O)N2CCCCC2)cc1C(=O)Nc1ccc2cn[nH]c2c1	-18%	2%	-21%	9%	0%	-2.1%	?	1%
COc1ccccc1NC(=O)CSc1nnc(C)n1CCc1ccccc1	2%	1%	-16%	-8%	-3%	3.4%	-6%	-9%
O=C(c1ccccn1)N1CC=C(c2ccccc2)CC1	nt	0%	21%	5%	-1%	nt	nt	-5%[46.1 µM]
CCN(CC)CCCNC(=O)CCc1ccccc1	-2%	8%	-11%	19%	1%	4.9%	7%	?
O=C(CCNS(=O)(=O)c1ccc(Cl)cc1)OCC(=O)c1ccc[nH]1	nt	2%	2%	-7%	8%	nt	4%	-10%[46.1 µM]
Cc1ccc2c(c1)nnn2C1CCN(C(=O)NC23CC4CC(CC(C4)C2)C3)CC1	7%	0%	nt	nt	nt	6.6%	5%	2%
Cc1ccc(NC(=O)CCC(=O)N2CCC(c3ccccc3)=N2)cc1S(=O)(=O)N1CCCCC1	nt	-3%	1%	10%	?	nt	nt	nt
CCCCCCn1c(/C=C/c2ccccc2)nc2ccccc21	-4%	nt	-9%	nt	?	-16%	nt	nt
Cc1cccc(CSCCNC(=O)C2CCN(S(=O)(=O)Cc3ccccc3)CC2)c1	1%	nt	0%	nt	-29%[46.1 µM]	-3.2%	nt	-17%[46.1 µM]
Cc1ccc(CNC(=O)CCS(=O)(=O)c2cc3c(cc2Cl)NC(=O)CO3)cc1	8%	-3%	-4%&-21%	4%	?	-5.4%	-9%	nt
CN(C)CCNC(=O)c1ccccc1-c1cc2ccccc2c(=O)o1	nt	0%	-6%	6%	-1%[46.1 µM]	nt	3%	?
COc1ccccc1NC(=O)/C=C/C(N)=O	3%	-49%	nt	-14%	-3%	1.7%	-43%	-29%
Cc1c(NC(=O)OCCNC(=O)COc2c(Cl)cccc2Cl)sc(=S)n1C	-23%	5%	-20%	2%	-1%	-13%	2%	10%
CNC(=O)CSc1nnc(-c2ccccn2)n1Cc1ccco1	nt	1%	-20%	0%	nt	nt	6%	nt
CCOC(=O)N1CCC(NC(=O)Cn2ncc3ccccc32)CC1	-5%	5%	nt	-9%	1%	3.5%	-11%	-5%
CSc1nc2ccccc2cc1/C=C(\C#N)c1ccc(Cl)cc1Cl	?	1%	?	-16%	-13%	4.8%	10%	-1%
O=C(Nc1ccccc1F)N(CCCN1CCOCC1)Cc1cc2cc3c(cc2[nH]c1=O)OCCO3	-12%	-9%	-9%	?	7%	-6.5%	-2%	?
CCC(C)(C)NC(=O)CN(Cc1ccc2c(c1)OCO2)C(=O)CCC(=O)Nc1cc(C)ccn1	nt	0%	5%	14%	-4%	nt	-6%	5%[46.1 µM]
CN(C(=O)Cn1cnc2onc(-c3ccc(F)cc3)c2c1=O)c1ccccc1Cl	-4%	nt	-12%	nt	12%[46.1 µM]	-1.8%	nt	nt
Cn1c(=O)[nH]c(=O)c2c1nc(N1CCCCCC1)n2CCN1CCCCCC1	-15%	1%	?	-4%	-13%	1.2%	-1%	-16%
COc1cc(CC(=O)N2CCN(C(=O)C3CCCO3)CC2)cc(OC)c1OC (stereo unspecified)	nt	9%	2%	10%	0%[46.1 µM]	nt	nt	2%[46.1 µM]
C=CCn1c(C(C)NC(=O)C(C)(C)C)nc2ccccc21 (stereo unspecified)	-2%	-1%	nt	-9%	0%	2.0%	0%	6%
Cn1c(N)c(S(=O)(=O)N2CCN(Cc3ccccc3)CC2)c(=O)n(C)c1=O	nt	-1%	-7%	-3%	15%[46.1 µM]	nt	nt	-7%[46.1 µM]
CCOc1ccc(-n2c(Cc3ccccc3)nnc2SCc2c(C)noc2C)cc1	18%	1%	-17%	6%	?	2.9%	-15%	0%
Cc1cc(C)n(-c2nnc(Nc3ccc(C)c(C)c3)c3ccccc23)n1	11%	nt	-5%	nt	5%[46.1 µM]	-5.9%	nt	-9%[46.1 µM]
Cc1ccc(C)c(OCCC(=O)OCC(=O)Nc2cc(S(=O)(=O)N3CCOCC3)ccc2C)c1	nt	0%	-17%	-22%	7%	nt	nt	-2%
CSc1ccccc1NP1(=O)OCC(C)([N+](=O)[O-])CO1 (stereo unspecified)	nt	nt	-6%	7%	-7%	nt	nt	7%
CCOc1ccc(C(=O)Nc2cccc(NC(=O)c3ccco3)c2)cc1Cl	-3%	nt	-13%	nt	-6%[46.1 µM]	-9.4%	nt	nt
CC(C)(C)OC(=O)N/N=C\C=C\c1ccc2c(c1)OCO2	4%	-4%	18%	18%	?	-7.0%	-6%	?
CSc1cccc(-c2nnc(NC(=O)c3cccc(N4C(=O)CCC4=O)c3)o2)c1	nt	3%	-16%	-7%	4%	nt	nt	12%
Cc1ccc(S(=O)(=O)N2CCC[C@H]2C(=O)Oc2ccccc2)cc1	nt	nt	0%	7%	-5%[46.1 µM]	nt	nt	1%[46.1 µM]
CCc1ccc2oc(=O)cc(CN3CCN(c4ccc(F)cc4)CC3)c2c1	-3%	3%	?	-2%	?	-6.8%	-7%	?
NC(=N\N=CCc1ccccc1)/C(N)=N/N=CCc1ccccc1	nt	nt	28%	-17%	7%[46.1 µM]	nt	nt	?
Cc1c(C(=O)Oc2cccc3ccccc23)cnn1-c1ccccc1	-8%	-25%	-9%	-3%	-1%	-4.0%	-111%	-2%
Cc1ccccc1-n1c(SCc2csc(Nc3ccccc3)n2)nnc1-c1cccnc1	?	-8%	?	10%	-18%	-7.7%	5%	?
O=C(CCc1nc2ccccc2c(=O)[nH]1)Nc1ccccc1N1CCCC1	nt	nt	-32%	8%	0%	nt	nt	-27%
O=C(CNC(=O)c1ccccc1Cl)c1ccccc1	nt	-3%	24%	8%	?	nt	16%	?
Cc1cccc(/C=C(\C(=O)O)c2ccc(S(=O)(=O)N3CCCC3)s2)c1	nt	-7%	1%	4%	4%[46.1 µM]	nt	nt	6%&6%
CCOc1ccccc1CNS(=O)(=O)c1ccc2[nH]c(=O)sc2c1	-20%	3%	-18%	22%	-19%	-4.4%	-5%	1%
CN1CCN(C(=S)NC(=O)c2ccc(S(=O)(=O)N3CCOCC3)cc2)CC1	nt	0%	-13%	4%	nt	nt	8%	nt
S=c1[nH]nc(C2CCCCC2)n1/N=C/c1cccc(Br)c1	nt	1%	-7%	5%	?	nt	1%	-28%
CCc1ccc(NC(=O)C2CCCN2C(=O)NC2CCCCC2)cc1 (stereo unspecified)	nt	2%	-11%	-7%	-4%[46.1 µM]	nt	-1%	3%[46.1 µM]
O=C(Oc1ccccc1Cl)c1ccc2c(=O)n3c(nc2c1)CCC3	nt	nt	-4%	-12%	-4%	nt	nt	20%
COc1ccc(N2Cc3ccccc3/C2=N\C(=O)Nc2ccccc2)cc1	nt	5%	10%	5%	-3%	nt	nt	-11%[46.1 µM]
CCC(CC)c1nnc(NC(=O)C23CC4CC(CC(NC(C)=O)(C4)C2)C3)s1	nt	4%	-28%	?	-8%	nt	-3%	19%
CCC(C)NC(=O)CC1Oc2ccc(C)cc2NC1=O (stereo unspecified)	7%	-1%	-12%	8%	nt	-0.1%	0%	nt
O=C(COc1ccc2oc(-c3ccccc3)cc(=O)c2c1)NCc1ccco1	-13%	-3%	17%	-6%	-26%	-5.1%	-9%	?
Fc1cccc(CNC2CCN(CCc3ccccc3)CC2)c1	nt	-2%	-10%	14%	nt	nt	-1%	nt
CSc1cccc(NC(=O)CN(c2ccccc2)S(=O)(=O)N(C)C)c1	?	-8%	0%&-16%	-2%	-22%[46.1 µM]	-0.4%&-5.5%	-6%	?
COc1ccc(C(CNC(=O)COc2ccc(-c3ccccc3)cc2)N2CCOCC2)cc1 (stereo unspecified)	nt	-2%	-17%	17%	nt	nt	-15%	nt
c1ccc(-c2cc(-c3nn4c(-c5ccco5)nnc4s3)c3ccccc3n2)cc1	17%	-1%	-9%	1%	?	-2.7%	16%	?
O=C(NC1CCCc2ccccc21)C1CCN(S(=O)(=O)c2cccc(C(F)(F)F)c2)CC1 (stereo unspecified)	15%	-11%	-1%	6%	9%	-6.3%	?	?
O=C(CSc1nnc(SCc2ccc(Cl)cc2)s1)N/N=C/c1ccc(C(=O)O)cc1	nt	-1%	15%	?	-15%	nt	8%	7%[46.1 µM]
COc1cc(C(=O)NCCOc2ccc(C)c(C)c2)cc(OC)c1OC	nt	5%	-20%	2%	nt	nt	-29%	nt
CN(C)c1ccnc2sc(C(=O)NCc3ccccc3)c(N)c12	-10%	-18%	nt	3%	?	-7.9%	-112%	11%
CSc1nnc(OC(=O)N(C)C)n1-c1ccc(Cl)cc1	nt	1%	-20%	-3%	nt	nt	2%	nt
COc1ccc(C2c3c(-c4ccc(F)cc4)n[nH]c3C(=O)N2c2ccccc2)cc1OC (stereo unspecified)	0%	nt	?	nt	?	-9.1%	nt	-21%[46.1 µM]
NC(=O)c1ccsc1NC(=O)CS(=O)(=O)c1ccc(Cl)cc1	nt	5%	0%	3%	nt	nt	3%	nt
O=C(Nc1ccccc1)Nc1nnc(COc2ccccc2F)s1	nt	0%	?	-1%	-24%	nt	-4%	1%
COc1ccccc1NC(=S)NC(C)C(c1cccs1)N1CCOCC1 (stereo unspecified)	nt	0%	-10%	-3%	nt	nt	-6%	nt
Later entries.
SMILES	Cruzain noTriton	SARS PLP yeast	2A StopGo	RE007 growth inh	Lassa entry inh	Cruzain inh Det	NS1 inh	MARV entry inh
CCOCCn1c(C(C)C)nc2ccccc21	14%	2%	2%	-2%	-6%	6.1%	1%	18%
COc1ccc(C2N(c3ccc(Cl)cc3)C(=O)C3CCCN32)cc1 (stereo unspecified)	-2%	-10%	-19%	-5%	nt	4.2%	-56%	nt
COCCCNC(=O)c1ccc(-n2c(-c3ccccc3)cc3c2CCCCC3)cc1	?	nt	-7%	nt	-22%[46.1 µM]	-6.1%	nt	nt
O=C1NC(=O)N(c2ccc(Cl)cc2)C(=O)/C1=C/c1ccc2c(c1)CCN2Cc1ccccc1Cl	nt	nt	-4%	2%	-2%	nt	nt	-1%[46.1 µM]
Cc1ccn2cc(-c3cccc(S(=O)(=O)N4CCCC4)c3)nc2c1	nt	5%	-3%	2%	?	nt	-3%	?
